# Mtb H37Rv: Confirmatory growth inhibition assay against Mycobacterium tuberculosis H37Rv, potency (AID 1949). most inactive calls were filed without a number and no value below 0 was filed. 100,000 compounds, 1.6% hits. inhibition, % at 10 µg/mL, or IC50 in µg/mL where a hit was titrated;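 active = confirmed in a dose series; inconclusive = about 50% or more but not retested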;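 also: bacteria grown 7 days with compound before Alamar blue readout; 0% = untreated bacteria and 100% = reference antibiotic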
# Numbers without * were called inactive; i = inactive; u = inconclusive.
SMILES,Mtb H37Rv
CCOc1cc(C2C(C(=O)c3cccs3)=C(O)C(=O)N2c2nnc(C)s2)ccc1OCc1ccccc1 (stereo not drawn),i
O=S(=O)(c1ccc(F)cc1)N1CCC(N2CCN(c3ccccc3)CC2)CC1,i
Cc1ccc(C(=O)Nc2sc(C)c(C)c2C(=O)O)cc1,i
O=c1c2c(nc3nc(CCc4ccccc4)[nH]n13)CCC2,i
COc1ccc(S(=O)(=O)N(C)CC(=O)Nc2ccc(C)cc2)cc1OC,i
Cc1cc(C)cc(C(=O)NCCN2CCOCC2)c1,i
COc1cc(OC)cc(C(=O)NC(=S)Nc2cccc(C(=O)O)c2C)c1,i
CCC(=O)Nc1cc2c(cc1C(C)=O)OCCO2,i
CC(CCc1ccccc1)NC(=O)CCS(=O)(=O)Cc1ccccc1 (stereo not drawn),3%
COC(=O)Cc1nnc(NC(=O)C(C)C)s1,i
O=C(NCC1CCCO1)c1ccc(CNS(=O)(=O)c2cccc(Cl)c2)cc1 (stereo not drawn),i
COCCCN1C(=O)/C(=C/c2ccccc2F)SC1=S,i
Cc1nc(=O)c(-c2ccccc2)c(C)n1C,i
O=C(c1ccccc1NS(=O)(=O)c1ccccc1[N+](=O)[O-])N1CCOCC1,i
Cc1ccc(-c2nc(N)n(C(=O)c3cccnc3)n2)cc1,i
C=CCn1c(COc2ccccc2Cl)nnc1SCc1ccc([N+](=O)[O-])cc1,2%
Cc1cc(=O)oc2c(CN3CCCCC3)c(O)ccc12,i
O=[N+]([O-])c1ccc(N2CCN(C3c4ccccc4-c4ccccc43)CC2)c2ncccc12,i
O=c1oc(-c2ccccc2F)nc2sc3c(c12)CCCC3,i
CCCSc1nnc(-c2ccccc2)n1-c1ccccc1,1%
Cc1ccc(-n2c(C)cc(/C=C3\NC(=O)NC3=O)c2C)c(C)c1,i
O=[N+]([O-])c1ccccc1-c1nnc(SCc2ccccc2Cl)o1,1%
COc1cc2c(cc1OC)CN(C(=O)CSc1ncnc3sc4c(c13)CCC4)CC2,i
CCC(C)c1ccc(NC(=O)c2cc(OC)c(OC)c(OC)c2)cc1 (stereo not drawn),3%
CCOc1ccc(NC(=O)CN(c2cccc(F)c2)S(C)(=O)=O)cc1,i

# The listing continues.
SMILES,Mtb H37Rv
COc1ccc(S(=O)(=O)NC(C)CCc2ccccc2)cc1 (stereo not drawn),5%
O=c1c2ccccc2nc2n1CCN2Cc1ccc(Cl)cc1,6%
Cc1cc(OC(C)C(=O)NCc2cccnc2)ccc1Cl (stereo not drawn),i
CSc1nc2nc(-c3ccccc3)cc(C(F)(F)F)n2n1,3%
O=C(NCCc1ccccc1)c1ccc(CSCc2ccccc2)cc1,i
CC(=O)c1ccc(NC(=O)C23CCC(C)(C(=O)C2=O)C3(C)C)cc1 (stereo not drawn),i
CCOC(=O)C1=CN(C(C)C)C=C(C(=O)OCC)C1c1ccc(Cl)cc1,i
COc1ccccc1NC(=O)c1ccccc1Cl,i
O=C(OCc1ccccc1Cl)c1cc2ccccc2oc1=O,i
C=CCn1c(SCc2ccc(OC)c([N+](=O)[O-])c2)nnc1-c1cccc(Br)c1,u
CC1CCN(c2ccc(NC(=S)NC(=O)c3ccccc3Br)cc2)CC1,1%
COc1ccc(Br)cc1C(=O)NC(=S)Nc1ccccc1C(=O)O,i
CCCCCC(=O)Nc1ccc(N2CCN(C(=O)c3ccco3)CC2)cc1,i
CCOc1cc(S(=O)(=O)NCCCN2CCOCC2)ccc1Cl,i
CCOC(=O)c1ccc(NC(=O)C2C3C=CC(C3)C2(C)C(=O)O)cc1 (stereo not drawn),5%
COCCCNC(=O)COc1ccc(-c2ccc(C#N)cc2)cc1,2%
CC1=C(C(=O)OCC(C)C)C(c2ccccc2F)C2=C(CC(c3cccs3)CC2=O)N1 (stereo not drawn),i
CN(C(=O)CCCC(=O)O)c1ccccc1C(=O)N1CCOCC1,i
Cn1c(CCc2ccccc2)nnc1SCC(=O)NCc1ccccc1,i
Brc1c(OCCCN2CCCC2)ccc2ccccc12,i
Cc1cc(=O)cc(C)n1-c1ccccc1N,i
CN1CCN(c2ccc(/C=C(\C#N)C(N)=O)cc2[N+](=O)[O-])CC1,i
COc1ccc(OC)c(NC(=O)CN2CCC(C)CC2)c1,i
O=C(O)c1ccc(CNC(=O)c2ccc3c(c2)C(=O)N(CC2CCCO2)C3=O)cc1 (stereo not drawn),i
O=C(NC(=S)Nc1ccc(N2CCCC2)cc1)c1ccc(F)cc1Cl,47%

# More entries:
SMILES,Mtb H37Rv
O=C(C1CCCO1)N1CCN(C(=S)Nc2cccc(Cl)c2)CC1 (stereo not drawn),i
O=C1CC(Cc2ccc(Br)cc2)C(=O)N1c1ccc(F)cc1 (stereo not drawn),3%
Cc1ccc(CSc2ncnc3sc4c(c23)CCCC4)cc1,i
S=C(NCCc1c[nH]c2ccccc12)Nc1ccc(Cl)c(Cl)c1,43%
Cc1cc(C)c(S(=O)(=O)N(C)CC(=O)N2CCN(c3ccc(F)cc3)CC2)c(C)c1,i
O=C(NCC1CCCO1)c1ccccn1 (stereo not drawn),i
COc1cc(CO)cc(I)c1Oc1ccc(C(F)(F)F)cc1[N+](=O)[O-],0%
Cc1cc(C)nc(NC(=O)CN2C(=O)C3CCCCC3C2=O)n1 (stereo not drawn),5%
COc1ccc(CCC(=O)Nc2cccc(C(C)=O)c2)cc1,i
CCCCNC(=O)C1CCN(C(=O)c2ccc(OC)cc2)CC1,i
Cc1sc(NC(=O)C2CCCCC2C(=O)O)c(C(N)=O)c1C (stereo not drawn),i
COc1ccc(Cl)cc1NC(=S)NCc1ccc(Cl)c(Cl)c1,7%
COc1ccccc1C1NC(=S)NC(C)=C1C(=O)Nc1ccccc1F (stereo not drawn),i
O=C(CCOc1ccccc1)Nc1ccc(Br)cc1,i
Cc1nn(-c2ccc(Cl)c(C(=O)O)c2)c(C)c1[N+](=O)[O-],i
CCN1C(=O)N(CC)C2C1N(CC)C(=O)N2CC (stereo not drawn),i
CCCc1nnc(NC(=O)c2cc(OCC)c(OCC)c(OCC)c2)s1,43%
O=C(O)c1ccc(NC(=O)c2cccc(N3C(=O)C4C5CCC(C5)C4C3=O)c2)cc1 (stereo not drawn),i
CSc1cccc(NC(=O)CNS(=O)(=O)c2c(C)cc(C)cc2C)c1,i
C=CCN1C(=O)C(O)(CC(=O)c2ccc(C)o2)c2ccccc21 (stereo not drawn),i
C=CCS(=O)(=O)CC(=O)Nc1ccccc1,9%
O=C(NNC(=O)C1CC(=O)N(Cc2ccccc2)C1)c1ccc(Br)cc1 (stereo not drawn),i
Cc1nn(C)c(C(=O)NNC(=O)NC23CC4CC(CC(C4)C2)C3)c1Cl,i
COc1ccc(C(=O)NCCC2=CCCCC2)cc1,i
O=C(O)c1ccc(NC(=O)c2cccs2)cc1,4%

# Continued.
SMILES,Mtb H37Rv
COc1ccc(/C(N)=N/OC(=O)COc2ccc(Cl)cc2C)cc1,2%
COc1cccc(OC)c1C(=O)NC(=S)Nc1ccc2c(c1)OCCO2,i
COc1ccc(N(CC(=O)N2CCC(C(N)=O)CC2)S(=O)(=O)c2ccc(C)cc2)cc1OC,2%
COc1ccc(NC(=O)CSc2nnc(NC(=O)c3ccc(Cl)cc3)s2)c([N+](=O)[O-])c1,i
CCCCNCc1ccc(OC)c(OCC(N)=O)c1,2%
O=C(Nc1ccccc1OC(F)(F)F)c1cccc(F)c1,i
COc1ccc(S(=O)(=O)Nc2cccnc2)c(Cl)c1Cl,i
CNc1ccccc1Cc1ccccc1,i
O=C(O)C1C2C=CC(C2)C1C(=O)N1CCCCCC1 (stereo not drawn),i
O=C(Cc1ccc(Cl)cc1)Nc1ccccc1C(=O)Nc1nccs1,i
Cn1nc(CC(=O)Nc2ncc(Br)s2)c2ccccc2c1=O,i
COc1ccc(Cl)cc1NC(=O)CSc1nnc(CNC(=O)c2ccc(OC)c(OC)c2)n1C,i
COc1ccc(CNC(=O)C2CC(=O)N(c3ccc(Cl)c(Cl)c3)C2)cc1 (stereo not drawn),i
CC(=O)c1ccc(NC(=O)c2cn(CCC#N)nc2-c2ccc(C)c(C)c2)cc1,i
CCC(=O)Nc1cc(C(=O)OCc2ccc(Cl)cc2Cl)ccc1C,i
CC(O)C(=O)NS(=O)(=O)c1ccccc1 (stereo not drawn),i
O=C(O)CC(NC(=O)c1cccnc1)c1ccccc1 (stereo not drawn),i
COc1cc(Cl)c(C)cc1NC(=O)Cc1ccc(C)cc1,i
CCOC(=O)CC(=O)CSc1nc(C)cc(-c2cccs2)c1C#N,i
CCN1CCN(C(=O)CN(C)S(=O)(=O)c2ccc(Br)cc2)CC1,i
CCOc1ccccc1NC(=O)Nc1ccc(N(C)C(C)=O)cc1,i
COC(=O)c1ccccc1NC(=O)c1c(NC(=O)CNC(C)c2ccccc2)sc2c1CCC2 (stereo not drawn),0%
COc1ccc(NC(=O)C2CC3c4ccccc4C2c2ccccc23)c(OC)c1 (stereo not drawn),6%
O=[N+]([O-])c1ccc(-c2nnc(SCc3ccccc3F)n2-c2ccccc2)cc1,1%
Nc1ccc2c(c1)C13CCN4CC5=CCOC6CC(=O)N2C1C6C5CC43 (stereo not drawn),i

# (next part)
SMILES,Mtb H37Rv
O=C(NC12CC3CC(CC(C3)C1)C2)N1CCN(c2cccc(C(F)(F)F)c2)CC1,0.96µg/mL*
CCOc1ccc2c(=O)c(-c3ccc4c(c3)OCCCO4)c(C)oc2c1,1%
CCc1ccc(NC(=O)CN(c2cc(C)ccc2OC)S(C)(=O)=O)cc1,4%
CCOC(=O)c1ccc(NC(=S)NNc2nc(C)cc(C)n2)cc1,i
COc1ccc(CCNCc2cccc(OC)c2OC)cc1,i
CCCC(=O)c1cc2c(cc1N)OCCO2,i
O=C(NCc1ccccc1)c1ccc(-n2cccn2)cc1,5%
CC1CCN(CCC(=O)N/N=C/c2ccc(N(C)C)cc2)CC1,i
Cc1noc(NS(=O)(=O)c2ccc(Nc3ncnc(N)c3[N+](=O)[O-])cc2)c1C,i
N#CCNC(=O)c1cc(-c2ccccc2)nc2ccccc12,i
COc1ccc(-c2nnc(Nc3ccc(CC(N)=O)cc3)c3ccccc23)cc1,i
CN1CCN(C(=O)c2nn3c(C(F)(F)F)cc(-c4ccc(Br)cc4)nc3c2Br)CC1,i
Cc1ccc(N2CCN(S(=O)(=O)c3cc(C)c(Br)cc3C)CC2)cc1C,i
Nc1nc2n(n1)C(c1ccc(OCc3ccccc3)cc1)CC(c1ccccc1Cl)N2 (stereo not drawn),i
COc1ccc(S(=O)(=O)NC2CCCCC2)c2ccccc12,i
CC(=O)C1=C(O)C(=O)N(CC2CCCO2)C1c1ccc2c(c1)OCO2 (stereo not drawn),i
O=C(c1ccc(C#Cc2ccccc2)cc1)N1CCN(Cc2ccc3c(c2)OCO3)CC1,i
COC(=O)c1cc(NC(=O)Cc2ccc(C)cc2)cc(C(=O)OC)c1,i
COc1cc(SC)ccc1C(=O)Nc1cccc(I)c1,i
CN(C)CCNC(=O)c1c[nH]c2ccccc12,1%
COc1cc(C2C(C(=O)N3CCOCC3)=C(C)NC3=C2C(=O)CC(C)(C)C3)cc(Cl)c1O (stereo not drawn),i
O=S(=O)(NC1CCC(NS(=O)(=O)c2ccc(Cl)cc2)CC1)c1ccc(Cl)cc1 (stereo not drawn),i
Cc1ccccc1C(=O)Oc1ccc2c(=O)c(-c3ccccc3Cl)coc2c1,i
CC1CCCCC1NC(=O)CSc1ccc(Cl)cc1 (stereo not drawn),i
c1ccc(OCCCc2nc(-c3ccccn3)no2)cc1,4%

# Next part
SMILES,Mtb H37Rv
COc1ccc(C2=NC(C)(C)Cc3cc(OC)c(OC)cc32)cc1OC,i
Cc1nnc(SCC(=O)N2c3ccccc3C(C)(c3ccccc3)CC2(C)C)s1 (stereo not drawn),5%
COc1ccc(-c2cc(C(=O)N=Nc3c(O)[nH]c4ccc(Br)cc34)[nH]n2)cc1,3%
CC(=O)Nc1nnc(COc2ccc(Cl)cc2)s1,i
COc1ccc2oc(=O)c(C(=O)Nc3cccc(F)c3)cc2c1,3%
O=C(CCn1nc(-c2ccccc2)c2ccccc2c1=O)N1CCOCC1,i
Cc1ccc(C)c(OCCn2ccnc2)c1,i
N#Cc1c(SCC(=O)Nc2c(Cl)cccc2Cl)nc2c(c1-c1cccnc1)CCC2,i
Fc1ccc(Cn2cnc3ccccc32)cc1,i

# Some of the entries so far, tab-delimited.
SMILES	Mtb H37Rv
O=C(c1ccc(C#Cc2ccccc2)cc1)N1CCN(Cc2ccc3c(c2)OCO3)CC1	i
COC(=O)c1cc(NC(=O)Cc2ccc(C)cc2)cc(C(=O)OC)c1	i
COc1cc(SC)ccc1C(=O)Nc1cccc(I)c1	i
CN(C)CCNC(=O)c1c[nH]c2ccccc12	1%
COc1cc(C2C(C(=O)N3CCOCC3)=C(C)NC3=C2C(=O)CC(C)(C)C3)cc(Cl)c1O (stereo not drawn)	i
O=S(=O)(NC1CCC(NS(=O)(=O)c2ccc(Cl)cc2)CC1)c1ccc(Cl)cc1 (stereo not drawn)	i
Cc1ccccc1C(=O)Oc1ccc2c(=O)c(-c3ccccc3Cl)coc2c1	i
CC1CCCCC1NC(=O)CSc1ccc(Cl)cc1 (stereo not drawn)	i
c1ccc(OCCCc2nc(-c3ccccn3)no2)cc1	4%
COc1ccc(C2=NC(C)(C)Cc3cc(OC)c(OC)cc32)cc1OC	i
Cc1nnc(SCC(=O)N2c3ccccc3C(C)(c3ccccc3)CC2(C)C)s1 (stereo not drawn)	5%
COc1ccc(-c2cc(C(=O)N=Nc3c(O)[nH]c4ccc(Br)cc34)[nH]n2)cc1	3%
CC(=O)Nc1nnc(COc2ccc(Cl)cc2)s1	i
COc1ccc2oc(=O)c(C(=O)Nc3cccc(F)c3)cc2c1	3%
O=C(CCn1nc(-c2ccccc2)c2ccccc2c1=O)N1CCOCC1	i
Cc1ccc(C)c(OCCn2ccnc2)c1	i
N#Cc1c(SCC(=O)Nc2c(Cl)cccc2Cl)nc2c(c1-c1cccnc1)CCC2	i
Fc1ccc(Cn2cnc3ccccc32)cc1	i

# Copied from above, two compounds:
SMILES,Mtb H37Rv
N#Cc1c(SCC(=O)Nc2c(Cl)cccc2Cl)nc2c(c1-c1cccnc1)CCC2,i
Fc1ccc(Cn2cnc3ccccc32)cc1,i

# Screening data (PubChem)

# The list is partial; rates above refer to the full screens.
